Mtb growth = M. tuberculosis H37Rv growth inhibitors, H37Rv strain (AID 1626); M. tuberculosis H37Rv growth inhibition; higher % means a stronger effect; inhibition, % at 10 µM, or IC50 in µM where a hit was titrated; actives 0.95% (n = 220,000);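 active = confirmed in a dose series; inconclusive = inhibition above 80% but not taken into the dose series; inactive = below 80% or under 30% at every dose of the series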;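 note: bacteria incubated seven days before Alamar blue readout; 0% = bacteria only wells and 100% = bacteria with antibiotic wells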
RecA splice inh = Mtb RecA intein splicing inhibition | cell-free RecA intein splicing, fluorescence | inhibition, %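 (about 9 µM by stock and volumes)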 | P9WHJ3 | actives 0.75% (n = 290,000); in the data active = inhibition above about 30%; inconclusive = no clear call, values can overlap the other calls;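 note: 0% = vehicle wells and 100% = reference inhibitor control wells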
Target sequence (P9WHJ3 whole entry, looked up, canonical isoform): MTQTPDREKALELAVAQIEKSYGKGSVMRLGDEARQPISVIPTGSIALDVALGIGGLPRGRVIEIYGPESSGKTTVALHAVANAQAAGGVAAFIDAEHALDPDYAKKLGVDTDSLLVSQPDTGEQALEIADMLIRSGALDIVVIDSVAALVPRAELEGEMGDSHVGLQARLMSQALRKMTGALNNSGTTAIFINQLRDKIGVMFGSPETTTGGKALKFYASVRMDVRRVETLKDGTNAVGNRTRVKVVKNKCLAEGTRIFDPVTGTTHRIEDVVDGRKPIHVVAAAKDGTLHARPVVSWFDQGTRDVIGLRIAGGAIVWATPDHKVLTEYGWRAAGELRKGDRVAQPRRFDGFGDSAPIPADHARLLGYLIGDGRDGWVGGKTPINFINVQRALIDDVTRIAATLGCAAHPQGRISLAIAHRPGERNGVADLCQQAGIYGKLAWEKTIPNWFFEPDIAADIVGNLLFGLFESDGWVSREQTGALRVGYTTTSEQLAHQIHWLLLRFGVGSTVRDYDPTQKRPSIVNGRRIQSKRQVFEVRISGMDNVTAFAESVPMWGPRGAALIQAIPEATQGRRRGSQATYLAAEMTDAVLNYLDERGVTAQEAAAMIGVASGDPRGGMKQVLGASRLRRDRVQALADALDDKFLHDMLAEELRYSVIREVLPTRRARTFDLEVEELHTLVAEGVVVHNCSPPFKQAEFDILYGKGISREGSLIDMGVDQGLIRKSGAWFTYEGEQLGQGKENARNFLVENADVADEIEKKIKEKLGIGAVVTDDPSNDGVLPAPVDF
YopH inh = blocks Yersinia enterocolitica YopH tyrosine phosphatase; fluorescence Ex485/Em525; inhibition, %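 (about 10 µM by stock and volumes)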; actives 0.16% (n = 140,000); AID 898;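 active = inhibition of 50% or more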;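 note: controls were vehicle for no effect and minimum signal wells for full effect; inactives centre near -20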
Mtb betalactam = beta-lactam sensitization of Mtb H37Rv; M. tuberculosis H37Rv growth with meropenem, percent inhibition; hits of this screen are not shown here; actives 0.27% (n = 330,000); inhibition, % at 25 µM; AID 434955;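 active = about 74% or more and at least 40 points above the plate without the antibiotic, then above 30% in a dose series; inconclusive = first-round hits that could not be retested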;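 note: growth measured after seven days incubation then overnight dye step; 0% = bacteria only wells and 100% = bacteria with antibiotic; twin plates without the antibiotic show which effects depend on it; some results filed as inactive read as strong as hits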
Arbovirus anti = blocks arbovirus infection. arbovirus infection cell-based antiviral screen. inhibition, % at 10 µM. actives 0.37% (n = 200,000);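 active = inhibition from about 30%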;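 note: bluetongue infection of BSR cells; cell survival read as ATP light after 72 h; 0% = infected wells without compound and 100% = uninfected wells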
Arbovirus anti repeat = further read-out of Arbovirus anti, marked with its call; inhibition, %; measured here: 10K subset replicate screen; many hits read low in the repeat;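 first of two repeat runs on a subset; 0% = infected and 100% = uninfected wells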
Starred values were filed as active, the others as inactive; ? = inconclusive; nt = no result given. These rows are one share of the data; rates above refer to the full screens.

SMILES | Mtb growth | RecA splice inh | YopH inh | Mtb betalactam | Arbovirus anti | others
CCOc1ccc(NC(=O)CN2CCN(CC(=O)c3ccc(OC)c(OC)c3)CC2)cc1 | 22% | nt | -36 | 29 | -1
CC(C)(C)C(=O)Nc1scc(-c2ccc(-c3ccccc3)cc2)c1C(=O)O | nt | 10 | nt | 16 | nt
CCOc1ccc(C(CC(=O)O)NC(=O)COc2ccccc2)cc1OC (stereo not drawn) | -7% | 8.1 | nt | 0 | 11
Cc1ccccc1C(=O)N1CCC(C(=O)N(C)CCOc2ccccc2)CC1 | nt | -3.0 | nt | -10 | nt
COc1cc(/C=N/n2cnnc2)ccc1OCCSc1ccc(C)cc1 | 3% | 1.3 | -28 | 4 | 0
COc1ccc(-c2sc(NC(=O)c3ccc(C)cc3)nc2-c2ccc([N+](=O)[O-])cc2)cc1 | -6% | -1.8 | 11 | -2 | -5
CN1C(=O)c2ccccc2NC(=O)[C@]12O[C@@H]2c1cccc(O)c1 | -2% | -2.5 | nt | -10 | nt
Cc1cccc(N(C(=O)c2snc(C(N)=O)c2N)C(C(=O)NCC2CCCO2)c2ccc(N(C)C)cc2)c1C (stereo not drawn) | nt | 0.3 | nt | 6 | nt
CC(=O)Oc1cccc(C(=O)Nc2ccc3c(c2)C(=O)N(CC2CCCO2)C3=O)c1 (stereo not drawn) | nt | 1.0 | nt | -4 | nt
O=C(CN1C(=O)/C(=C/c2ccccc2Cl)SC1=S)NC1CCS(=O)(=O)C1 (stereo not drawn) | nt | 11 | nt | ? | nt
Cc1ccc(NC2CCCN(C(=O)C3CCCCC3)C2)cc1C (stereo not drawn) | nt | -2.4 | nt | 6 | nt
O=C(CSc1ccccn1)N1CCN(c2ncc(C(F)(F)F)cc2Cl)CC1 | 4% | 3.5 | nt | 14 | nt
CCOC(=O)c1ccc(NC(=O)CN2C(=O)NC3(CCC(C)CC3)C2=O)cc1 (stereo not drawn) | -2% | -0.3 | nt | 3 | -17
CC(C)OCCCn1c(=S)[nH]c2ccc(N3CCOCC3)cc2c1=O | -2% | -36 | -39 | 3 | 5
CCOc1ccccc1NC(=O)C(OC(=O)c1cc(C)oc1C)c1ccccc1 (stereo not drawn) | 9% | nt | -43 | 8 | -5
O=C(NCC(c1cccnc1)N1CCN(c2ccc(F)cc2)CC1)Oc1ccccc1 (stereo not drawn) | -11% | 2.3 | 0 | 3 | -3
COc1ccc(/C=C/c2ccc3c(Br)ccc(O)c3n2)cc1 | nt | 1.9 | nt | 33 | nt
CC1(C(=O)NC2CCCCCCC2)CCC(=O)N1Cc1cccnc1 (stereo not drawn) | -4% | 0.5 | -17 | 3 | -1
Cc1ccc(CNC(=O)C2CCCN(S(C)(=O)=O)C2)cc1 (stereo not drawn) | 0% | 1.2 | -16 | 6 | 3
Cc1noc(C(=O)N2CCN(c3ccc(F)cc3)CC2)c1Cl | 2% | -1.9 | -32 | 7 | 3 | Arbovirus anti repeat=-1
CC(C(=O)Nc1cccnc1)N1C(=O)C2C3C=CC(C3)C2C1=O (stereo not drawn) | -8% | -0.2 | -5 | -3 | 5
CC(C)(OC1OC(CO)C(O)C(O)C1O)[C@H]1Oc2ccc3ccc(=O)oc3c2[C@H]1O (stereo partly drawn) | -4% | 0.5 | -27 | -13 | 1
O=C(CCc1ccc(S(=O)(=O)N2CCOCC2)cc1)Nc1ccc2c(c1)OCCO2 | -5% | -0.5 | nt | -2 | nt
CCOC(=O)c1c(C)nc2c(c1-c1ccccc1)C(=O)c1ccccc1-2 | 15% | -4.5 | -31 | 59 | 4
COc1ccc(CCNC(=O)C2CCN(S(=O)(=O)N3CCCCCC3)CC2)cc1OC | nt | 2.0 | -47 | -12 | -1
CCOC(=O)C(C)Oc1ccc(NC(=O)C(Cl)(Cl)Cl)cc1 (stereo not drawn) | ? | -2.4 | nt | 100 | nt
CC(C)c1ccc(C2C3=C(COC3=O)Nc3cc4c(cc32)OCO4)cc1 (stereo not drawn) | 3% | -0.2 | nt | 3 | -10
CCn1cc(C(=O)NCc2ccc3c(c2)OCO3)c(=O)c2cc(S(=O)(=O)N(C)C)ccc21 | -2% | 3.4 | -26 | 3 | -2
O=C(CSc1nnc(-c2ccccc2)o1)Nc1ccccc1F | 0% | 1.8 | -31 | 1 | -5 | Arbovirus anti repeat=-8
O=C(Cc1ccc(F)cc1)N1CCC(CC2CC(c3ccc(Cl)cc3)=NO2)(C(=O)NCC2CCCCC2)CC1 (stereo not drawn) | nt | -1.1 | nt | -2 | nt

In the list so far, four have four or more nitrogen atoms.
SMILES | Mtb growth | RecA splice inh | YopH inh | Mtb betalactam | Arbovirus anti | others
COc1cc(/C=N/n2cnnc2)ccc1OCCSc1ccc(C)cc1 | 3% | 1.3 | -28 | 4 | 0
Cc1cccc(N(C(=O)c2snc(C(N)=O)c2N)C(C(=O)NCC2CCCO2)c2ccc(N(C)C)cc2)c1C (stereo not drawn) | nt | 0.3 | nt | 6 | nt
O=C(CSc1ccccn1)N1CCN(c2ncc(C(F)(F)F)cc2Cl)CC1 | 4% | 3.5 | nt | 14 | nt
O=C(NCC(c1cccnc1)N1CCN(c2ccc(F)cc2)CC1)Oc1ccccc1 (stereo not drawn) | -11% | 2.3 | 0 | 3 | -3

Next records
SMILES | Mtb growth | RecA splice inh | YopH inh | Mtb betalactam | Arbovirus anti | others
O=C(NCc1cn2ccccc2n1)c1ccc2c(c1)OCO2 | -5% | -2.0 | -12 | -16 | 8
Cc1ccc(Nc2nc(Cl)c(C=O)s2)cc1 | -1% | 8.5 | nt | 0 | nt
Cc1ccc(N(CC(=O)NCc2ccccc2Cl)S(=O)(=O)c2c(C)noc2C)cc1 | nt | -0.6 | nt | 7 | nt
C[C@H]1CCC(=O)N([C@H](CC#N)Cc2ccccc2)CC1 | nt | 0.1 | nt | 1 | nt
Cc1ccc(SCc2cc(=O)[nH]c(Nc3nc(C)c4ccccc4n3)n2)cc1 | 6% | 5.8 | 3 | -8 | -6
Cc1ccc(NC(=O)COC(=O)CN2C(=O)c3ccccc3C2=O)cc1S(=O)(=O)N(C)C | 6% | -0.7 | nt | -2 | 4
COc1cc(NC(=O)C2CCC(=O)N2S(=O)(=O)c2ccc(C)cc2)cc(OC)c1 (stereo not drawn) | nt | -1.6 | nt | -7 | nt
Cc1ccc(-c2cc(-c3ccccc3)nc(N(C)N)n2)cc1 | nt | 2.3 | nt | 75 | nt
Cc1nc2c(C)cccc2c2c1CCS2 | 4% | -0.6 | nt | -6 | nt
COc1cc(C=O)c(Br)cc1OCc1ccc(C)cc1 | 7% | 22 | 5 | -2 | -2
Cc1cnc(C(=O)Oc2c(C)ccc(C)c2C)cn1 | -2% | -4.4 | nt | 63 | -2
Cc1ccc(SCC(=O)NC(=O)NCCC(C)C)c(C)c1 | 12% | -0.8 | nt | -11 | 0
N#Cc1c2c(c(-n3cnc4ccccc43)n3c1nc1ccccc13)CCC2 | 7% | -26 | -15 | 0 | 0
CCC(=O)Nc1ccc(S(=O)(=O)N2CCOCC2)cc1 | -4% | -1.0 | -10 | -1 | 5
COc1cc(CN(CC2CCCO2)C(=O)c2cccs2)cc(OC)c1OC (stereo not drawn) | nt | 2.5 | nt | -5 | nt
CN(C)C(=O)Oc1ccc2nnc3ccnn3c2c1 | nt | -1.4 | nt | 3 | nt
CN(c1ccc(OCC(=O)NCc2cccnc2)cc1)S(=O)(=O)c1ccc(Cl)cc1 | 7% | 5.2 | nt | 3 | 7
CCOC(=O)c1c(S(=O)(=O)N2CCN(C)CC2)c(C)n(C)c1C | nt | 0.0 | nt | -8 | nt
Nc1cccc(Cl)c1N1CCOCC1 | -8% | -3.7 | -12 | -1 | -6
O=C(CSc1cccc[n+]1[O-])N1CCCCCC1 | 1% | -0.7 | nt | -4 | 7
COc1cc(/C=N/NC(=O)c2c(-c3ccccc3)noc2C)ccc1O | -3% | -1.1 | -19 | -14 | 3
O=C(O)C1CCCCC1C(=O)NC1C2CC3CC(C2)CC1C3 (stereo not drawn) | nt | -1.8 | nt | 7 | nt
Cc1cccc(CS(=O)(=O)Cc2ccc(C(=O)NCCCN3CCCC3)o2)c1 | 1% | nt | -19 | -1 | -5
CC(C)(C)OC(=O)N1CCC(c2c(C(=O)NCC3CCN(C4CCCC4)C3)cnn2-c2ccc(F)cc2)CC1 (stereo not drawn) | nt | 0.8 | nt | 2 | nt
Cc1cc(-n2c(C)cc(C(=O)CN3C(=O)NC4(CCCC4)C3=O)c2C)no1 | -5% | 2.4 | -37 | 8 | 0
C[C@@H]1C(=O)O[C@@H]2[C@H](O)C34[C@H]5C[C@@H](C(C)(C)C)C36[C@H](OC(=O)[C@@H]6O)OC4(C(=O)O5)[C@@]12O (stereo partly drawn) | -10% | -0.5 | -35 | -7 | 2
Cc1c(NC(=O)COC(=O)c2cc3c4ccccc4n(C)c3s2)c(=O)n(-c2ccccc2)n1C | 8% | 2.4 | -40 | 8 | 5
CC(C)c1ccccc1NC(=O)COC(=O)c1c2c(nc3ccccc13)CCN(Cc1ccccc1)C2 | 14% | 6.9 | 7 | -4 | 8
CC(C)(C)c1ccc(/C=C/C(=O)NC2CCS(=O)(=O)C2)cc1 (stereo not drawn) | 3% | 0.6 | nt | 4 | 3
O=C(Nc1ccccc1-c1nc2ccccc2s1)C1=COCCO1 | 12% | 0.6 | -23 | 16 | -15

Fetched one by one from the list above:
SMILES | Mtb growth | RecA splice inh | YopH inh | Mtb betalactam | Arbovirus anti | others
Cc1cccc(CS(=O)(=O)Cc2ccc(C(=O)NCCCN3CCCC3)o2)c1 | 1% | nt | -19 | -1 | -5
Cc1cc(-n2c(C)cc(C(=O)CN3C(=O)NC4(CCCC4)C3=O)c2C)no1 | -5% | 2.4 | -37 | 8 | 0
Cc1c(NC(=O)COC(=O)c2cc3c4ccccc4n(C)c3s2)c(=O)n(-c2ccccc2)n1C | 8% | 2.4 | -40 | 8 | 5

Further entries follow.
SMILES | Mtb growth | RecA splice inh | YopH inh | Mtb betalactam | Arbovirus anti | others
O=C(/C(=C(\[O-])c1ccccc1)[n+]1ccc2ccccc2c1)c1ccc(Cl)cc1 | 0% | 4.9 | 10 | ? | -16
CCC(=O)N1CCc2cc(Br)cc(S(=O)(=O)NCC3CCCN3CC)c21 (stereo not drawn) | -3% | nt | -30 | ? | 9
CCCCc1nc2ccccc2c(=O)n1NC(=O)c1c(O)c2cccc3c2n(c1=O)CC3 | -1% | -22 | nt | -8 | nt
N#Cc1ccccc1NC(=O)c1ccc2c(Cl)c3c(nc2c1)CCCC3 | 4% | 1.0 | -2 | 6 | -1
O=C(NCCCn1ccnc1)c1cc(S(=O)(=O)N2CCOCC2)c(Cl)cc1Cl | -1% | -0.8 | -11 | 7 | 3
COc1ccc(CCNc2nc(C)nc3c2nnn3Cc2ccccc2)cc1 | nt | -1.2 | nt | -1 | nt
O=C(N/N=C/c1ccccc1)c1n[nH]c2c1CCCC2 | 0% | -3.9 | nt | -3 | -3
COCc1cc(C)n(CC(=O)Nc2ccc3c(c2)OCO3)c(=O)c1C#N | nt | -5.2 | nt | 0 | nt
O=C(NC(=S)NCCc1ccccc1)c1ccccc1 | 27% | 0.8 | -34 | 3 | -1
O=S(=O)(c1cccc(-c2nc3ccccc3s2)c1)N1CCOCC1 | 2% | -0.1 | 3 | 5 | -10
CCOc1ccc(N2CC(C(=O)Nc3ncccc3C)CC2=O)cc1 (stereo not drawn) | -7% | 1.7 | -14 | -4 | -4
NC1=NC(c2cccnc2)n2c(nc3ccccc32)N1 (stereo not drawn) | 1% | -0.2 | nt | 7 | nt
Cc1ccc2[nH]c(=O)c(CN(Cc3cccnc3)Cc3nnnn3CC3CCCO3)cc2c1 (stereo not drawn) | 8% | -1.6 | nt | 0 | nt
Cc1cccc(S(=O)(=O)CC(=O)Nc2nc(-c3ccccc3)cs2)c1 | 0% | 8.8 | -43 | -1 | 7
CC(C)N(C(=O)CSc1nnc(NC(=O)C2CCC2)s1)C(C)C | 1% | -3.9 | 1 | -6 | 8
O=C(Nc1ncccc1O)c1ccc(S(=O)(=O)Nc2ccccc2)cc1 | nt | -2.2 | nt | -1 | nt
CCc1ccc(NC(=O)Cc2c(C(=O)O)n(C)c3ccccc23)cc1 | -6% | -1.0 | nt | -1 | 16
COc1ccc(-c2ccc(-c3nnc(-c4cc(OC)ccc4OC)o3)cc2)cc1 | nt | -6.4 | -5 | 2 | 12
O=C(N/N=C/c1c(O)n(C2CC2)c(=S)[nH]c1=O)c1ccccc1 | nt | -1.9 | nt | 2 | nt
CCc1ccc(-n2c(O)c(/C=N/N3CCCCC3c3cccnc3)c(=O)[nH]c2=O)cc1 (stereo not drawn) | 1% | 0.1 | -34 | -6 | 2
CC1(C)C(=O)CC[C@]2(C)C3C(=O)C=C4[C@H]5C[C@@](C)(C(=O)O)CC[C@]5(C)CC[C@]4(C)[C@]3(C)CC[C@@H]12 (stereo partly drawn) | -19% | -9.2 | nt | -7 | nt

Bioassay records deposited in PubChem BioAssay by several laboratories.
